# Assay outcomes (PubChem BioAssay)
# Ecoli rRNA inh – reduced GFP signal of wild-type E. coli, primary screen, bacterial rRNA inhibitor project, GFP/RFP fluorescence, OD600, single point; E. coli WT GFP vs humanized-ribosome RFP mutants, 24 h; stronger effect = lower value; DMSO median 0, no signal -100; GFP signal change (wild-type ribosome), % (concentration not given with the values); 350,000 compounds, 1.6% hits; AID 720706, 2013;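 active = significant combined selectivity score with lowered wild-type GFP, culture density cut under 30%, mutant RFP and density less affected; inactive = any of these conditions unmet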; note: one replicate is shown; some compounds called inactive have numbers as strong as hits
# Beta cell apopt – inhibitors of cytokine-induced beta cell apoptosis, primary screen, luminescence. INS-1E cytokine-induced death, ATP luminescence, 48 h; percent of positive-control rescue, neutral wells zero. protection from apoptosis, % (test concentration not listed). 300,000 compounds, 0.8% hits. AID 435005, 2010;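 active = all replicates at 75% or more, or half of them and the mean; inconclusive = half reach 75% but not the mean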;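 note: 0% = cytokine-treated negative control wells and 100% = positive control rescue; higher means more ATP so stronger rescue from cytokine killing; wells of about 40 µL received 100 nL stock; the first replicate is given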
# RanGTP-Imp inh – inhibitors of RanGTP-importin-beta interaction, primary screen, biochemical, FRET, CFP-Ran, YFP-importin-beta, homogeneous. Ran GTPase (GTP-bound) - importin-beta complex. cell-free CFP-Ran/YFP-importin-beta FRET ratio. inhibition, % (concentration not given with the values). 300,000 compounds, 1.1% hits;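 active = most replicates above 15%; inconclusive = exactly half above 15%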;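 note: 0% = DMSO wells and 100% = Ran loaded with GDP instead of GTP; wells of about 40 µL received 100 nL stock; the first replicate is given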
# Vif TR-FRET – inhibitors of Vif binding to APOBEC3G peptide, primary screen, biochemical, TR-FRET, GST-Vif 1-94, biotin-A3G peptide, dose response retest (AID 1117319); one-dose inhibition, %; IC50 in µM for titrated hits; 260,000 compounds, 0.57% hits; TR-FRET GST-Vif / biotin-A3G peptide binding; higher % means a stronger effect; test concentration not given here; strong numbers were not always called active; Virion infectivity factor (Human immunodeficiency virus type 1 group M subtype B (isolate …;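 active = above the screen mean plus three standard deviations and confirmed in dose response; inconclusive = results disagree or hit not tested in dose response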;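 note: Vif residues 1-94 fused to GST binding biotinylated APOBEC3G peptide 110-148; 0% = full assay without inhibitor and 100% = GST in place of GST-Vif; retest series ran down from 100 µM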
# T cruzi repl – inhibitors of intracellular T. cruzi growth, primary screen, luminescence, NIH3T3 host cells | T. cruzi beta-gal in NIH3T3, 90 h | AID 1885, 2009 | inhibition, % (test concentration not listed) | 300,000 compounds, 1.4% hits;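 active = mean inhibition across valid replicates above about 55%, limit read from the data; inconclusive = mean below that limit but half or more replicates reach it; inactive = mean below it, under half of replicates reach it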;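 note: signal also drops with host cell toxicity which is not excluded here; 0% = plate median of DMSO wells and 100% = zero luminescence signal; higher percent means less beta-gal luminescence so fewer parasites; stock transfer was 50 nL into about 50 µL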
# MLL AF4-AF9 inh – inhibitors of AF4 peptide binding to AF9, primary screen, biochemical, AlphaScreen, biotin-AF4 peptide, FLAG-AF9, single point. inhibition, % at 10 µM. AID 651704, 2012. 350,000 compounds, 0.47% hits;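 active = every replicate reaching a set inhibition limit, whatever the replicate mean, cut at about 25% in these data; inconclusive = mean inhibition reaches that limit but some replicates miss it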;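 note: 0% = plate neutral control median and 100% = total signal loss; the record names both 10 and 1 µM as test concentration; the first replicate is given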
# Target sequence (P42568 whole entry, looked up): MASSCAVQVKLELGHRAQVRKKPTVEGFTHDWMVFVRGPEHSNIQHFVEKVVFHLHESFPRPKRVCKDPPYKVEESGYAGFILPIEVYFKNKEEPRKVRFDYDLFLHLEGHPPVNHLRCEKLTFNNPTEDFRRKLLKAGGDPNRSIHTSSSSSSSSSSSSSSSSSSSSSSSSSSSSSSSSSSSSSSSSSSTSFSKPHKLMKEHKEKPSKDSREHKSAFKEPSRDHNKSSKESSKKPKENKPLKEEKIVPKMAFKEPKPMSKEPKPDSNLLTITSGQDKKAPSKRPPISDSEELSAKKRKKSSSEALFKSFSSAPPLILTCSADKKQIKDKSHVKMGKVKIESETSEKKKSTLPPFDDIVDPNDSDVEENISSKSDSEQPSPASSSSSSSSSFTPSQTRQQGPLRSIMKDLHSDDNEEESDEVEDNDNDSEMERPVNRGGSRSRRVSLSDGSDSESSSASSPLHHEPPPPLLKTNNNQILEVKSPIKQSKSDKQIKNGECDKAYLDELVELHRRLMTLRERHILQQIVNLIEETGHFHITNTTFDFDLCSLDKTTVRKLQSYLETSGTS
# Calb FLC – C. albicans growth inhibition with fluconazole, primary screen, CaCi-2 strain, Alamar Blue fluorescence | C. albicans CaCi-2 (fluconazole-resistant clinical isolate) + fluconazole, 48 h | growth inhibition, % (concentration not given with the values) | 300,000 compounds, 0.57% hits | AID 1979, 2009;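 active = most replicates above 75%; inconclusive = exactly half above 75%; inactive = most below 75%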;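 note: all wells also contain fluconazole at 8 µg/ml as a sub-toxic cotreatment; 0% = median of DMSO wells and 100% = median of geldanamycin control wells; wells of about 8 µL received 7.5 nL stock; the first replicate is given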
# A1 inh – caspase 3/7 activation in MEF A1-2A-BIM cells, primary screen, A1 inhibitor project, cell-based, luminescence, HTS | 330,000 compounds, 0.066% hits | caspase activation, % (no concentration beside the values) | Caspase-Glo 3/7 luminescence, 3 h; percent of clofoctol response, vehicle zero;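 active = over half of replicate activation scores above 10%, or exactly half above 10 with the replicate mean above 10; inconclusive = replicate mean below 10 yet half the replicates above 10; inactive = over half of replicates below 10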;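 note: wells of about 30 µL received 50 nL stock; many hits fall short of the cut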
# Ecoli rRNA inh OD600 – second read-out of Ecoli rRNA inh, no call of its own (marks repeat the call); OD600 change, %; measured here: OD600 growth;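 optical density of the mix in the first replicate; 0 = DMSO median and -100 = no signal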
# Ecoli rRNA inh RFP – also measured in Ecoli rRNA inh; calls as there; RFP signal change, %; measured here: RFP humanized mutant strains;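 first replicate; 0 = DMSO median and -100 = no signal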
# * hit, by the source's call; ? = inconclusive; . = not tested or not shown. An excerpt; rates above refer to the full screens.
# Value order – Ecoli rRNA inh, Ecoli rRNA inh OD600, Ecoli rRNA inh RFP, Beta cell apopt, RanGTP-Imp inh, Vif TR-FRET, T cruzi repl, MLL AF4-AF9 inh, Calb FLC, A1 inh
O=c1[nH][nH]c(C(F)(F)F)c1C=NCc1ccccc1Cl
→ ., ., ., -1.3, 1.9, 1.6%, -2.3, ., -4.0, -0.4
CC(=O)N1c2ccc(S(=O)(=O)N3CCCC(C(=O)N4CCCC(C)C4)C3)cc2CC1C (stereo unspecified)
→ -6.3, -6.3, 0.6, 9.0, -2.0, 2.9%, 6.5, -1.0, -38.6, 0.3
O=C(c1cccs1)[C@@H]1[C@@H]2C(=O)N(Cc3ccc4c(c3)OCO4)C(=O)[C@@H]2C2c3ccccc3C=CN21 (stereo partly specified)
→ ., ., ., 3.7, 2.2, 28.2%, -1.9, ., ?, 0.2
CCc1cc(=O)oc2c3c(cc(OCC(=O)NCCN4CCOCC4)c12)OC(C)(C)CC3
→ ., ., ., 1.1, -1.6, ., 9.6, -1.6, -2.8, 0.8
C=CCOC(=O)C1=C[C@@H](c2csc3ccccc23)C[C@@H](OCCCCO)O1
→ ., ., ., -1.5, 1.6, ., -2.9, ., -5.2, -1.3
Cc1cccc(-c2nc(CS(=O)CC(=O)N3CCN(C)CC3)c(C)o2)c1 (stereo unspecified)
→ 1.9, 4.9, -7.0, -1.6, -0.4, 13.2%, 5.4, -18.4, 0.9, .
COC(=O)[C@@H](NC(=O)NCc1ccc(F)cc1)C(C)C
→ 14.1, 15.3, 5.0, -6.9, -1.0, -4.4%, -13.4, -9.3, 0.1, 0.3
O=C(CSc1nnc(-c2cnccn2)n1Cc1ccco1)c1ccccc1
→ ., ., ., 2.8, -1.7, 0.3%, -1.2, ., ?, -0.1
FCCCOc1ccc(-c2nccc(-c3ccc(Br)cc3)n2)cc1
→ ., ., ., -4.4, 3.0, -14.4%, 7.0, ., -11.9, 1.7
CCN(CC)S(=O)(=O)c1ccc(=O)[nH]c1
→ 9.8, 11.7, 1.3, -4.8, 4.4, ., -26.4, -5.9, -5.8, 0.4
CNc1c(NS(=O)(=O)c2ccc(F)cc2)c(=O)oc2ccccc12
→ 1.3, -10.3, 1.4, -4.9, 0.4, ., -6.8, 0.8, -0.8, -0.4
CCOC(=O)C(OC(=O)c1sc(=S)n(C)c1C)C(C)=O (stereo unspecified)
→ ., ., ., -6.8, -0.2, 0.0%, -20.4, ., 4.1, -0.4
O=[N+]([O-])C1=C(Nc2cccc3ccccc23)CS(=O)(=O)C1
→ ., ., ., 1.7, 1.3, 13.6%, -14.5, ., 4.6, 0.1
CC(=O)c1cccc(NC(=O)C(OC(=O)c2cccs2)c2ccccc2)c1 (stereo unspecified)
→ ., ., ., -7.5, 2.4, -7.1%, 2.7, ., -19.4, -0.8
CN(C)c1cccc(N(C)C)c1CNC(=O)NC(=O)c1c(F)cccc1F
→ 0.7, -11.4, 4.3, 3.6, 1.5, ., 17.6, -1.9, 6.2, 1.6
COC(=O)c1c(NC(=O)COC(=O)c2ccc(Cl)nc2)sc(C)c1C
→ 9.9, 6.0, -0.9, -8.4, -2.0, 2.2%, -4.8, -28.5, 3.7, -0.3
CC(C)c1ccc(C(O)P(=O)(OCc2ccccc2)c2ccc(N(C)C)cc2)cc1 (stereo unspecified)
→ ., ., ., -8.0, 5.6, -3.8%, 13.7, -2.9, -18.5, -0.3
CCOC(=O)C1=C(C)NC(=O)C(C#N)C1c1ccco1 (stereo unspecified)
→ 10.8, 4.9, 1.0, -2.7, 3.1, 1.0%, -6.2, 3.8, 3.8, -0.4
C=CC[C@H](CC(=O)N(CCO)Cc1ccccc1)C(=O)NCCOC(=O)[C@@H](CC=C)Cc1ccc(F)cc1
→ -8.8, -5.9, 4.1, -1.3, ., ., ., 2.7, ., 0.4
C/C(=N\NC(=O)Cc1c(C)[nH][nH]c1=O)c1ccc2ccccc2c1
→ 0.1, 7.5, -3.3, -6.3, -2.1, ., 4.2, 3.6, 7.8, 0.5
O=C(CCNC(=O)c1ccccc1Cl)NCCCSc1ccccc1
→ 2.2, 1.6, 1.9, -1.6, ., -8.5%, ., -4.2, ., 0.3
CCOc1ccc(NC(=O)C2CC(=O)N3CCCN=C3S2)cc1 (stereo unspecified)
→ ., ., ., 4.7, -1.4, 6.9%, -18.5, ., 42.6, 0.3
Cc1ccc(C(=O)C(O)C(c2ccc(C)cc2)N2CCCCC2)cc1 (stereo unspecified)
→ 2.9, 2.1, -1.0, -1.6, 4.5, -7.8%, -10.0, -0.7, -11.5, -0.8
CCc1nnc(NC(=O)CSc2nnc(C(C)NC(=O)c3ccccc3F)n2C)s1 (stereo unspecified)
→ 0.5, 3.1, -1.9, -20.1, 6.1, ., -19.0, 1.0, -6.2, -0.6
CC1CCN(C(=O)C2CCN(S(=O)(=O)c3cccc4nonc34)CC2)CC1
→ ., ., ., 0.2, -4.1, -1.3%, -7.8, ., -7.5, -0.8
CCC(=O)Nc1c(OC(=O)CC)ccc2c(C)cc(=O)oc12
→ 0.5, 5.9, -0.5, -0.4, -2.3, 30.6%, 12.0, -1.8, -5.6, 0.2
CC(=O)c1ccc(NC(=O)C2CC2c2ccccc2)cc1 (stereo unspecified)
→ -5.7, -4.3, -0.8, 6.6, 0.9, ., 11.7, -1.9, -1.3, 0.4
O=C(Nc1ccc(S(=O)(=O)N2CCCC2)cc1)c1ccc(Cl)nc1
→ -4.9, -4.7, 2.2, 3.4, -2.6, -1.6%, -0.7, -7.8, 0.6, -0.3
Cc1ccc(C)c(NC(=O)CN(C)C(=O)c2ccc(-c3ccc(Cl)cc3)o2)c1
→ 5.5, 2.3, 0.9, 0.1, 2.7, 2.3%, 7.5, -0.5, 17.5, 0.0
O=C(Cn1cc(C(=O)c2ccco2)c2ccccc21)NCc1ccco1
→ ., ., ., -9.8, 0.2, 4.3%, -3.0, ., 4.2, -1.0
COc1cccc(-c2cc(C(=O)NCC3CCCO3)on2)c1 (stereo unspecified)
→ -8.7, -5.1, 0.9, 1.3, 2.1, ., -2.4, -7.4, 7.8, -0.4
C/C(=N\N=C(N)N)c1cc(Cl)ccc1Cl
→ -6.1, -1.2, -1.7, 4.7, 5.3, 9.6%, -1.0, 3.0, 4.8, 0.4
O=C(CNC(=O)c1ccccc1)NCC(=O)OCC(=O)c1ccc(F)cc1
→ -0.9, 10.0, -3.6, 2.3, 5.7, ., -30.2, 3.2, 6.4, 0.1
COC(=O)c1ccc(C(NC(=O)c2cccnc2)NC(=O)c2cccnc2)cc1
→ 13.1, 13.3, 2.7, ., 0.0, ., 2.4, -0.4, 0.3, -0.4
CCOc1ccc(S(=O)(=O)NCc2ccccc2)cc1C(N)=O
→ 8.0, 13.6, 1.6, -4.2, 0.8, ., 17.7, -2.2, -27.0, 0.1
CCOC(=O)N1CCC(n2c(SCC(=O)N3CCC(C)CC3)nc3ccccc3c2=O)CC1
→ ., ., ., -5.7, 0.5, 1.9%, 34.6, ., -6.6, 0.8
CCNC(=S)NNC(=O)c1ccc(=O)n(Cc2ccccc2)c1
→ 19.0, 16.4, 1.9, ., 2.3, -4.7%, -7.9, -0.6, -4.6, 0.3
CN(C)C(=O)COC(=O)[C@H](Cc1ccccc1)NC(=O)c1ccco1
→ ., ., ., -0.2, -3.9, 15.2%, -1.6, ., -4.8, 0.2
Cn1c(=O)c2c(nc(NCc3ccccc3)n2C)n(C)c1=O
→ ., ., ., 1.4, 7.9, -5.9%, -7.5, ., 3.9, 0.1
Cc1nnc(SCC(=O)N(CC(C)C)c2c(N)n(Cc3ccccc3)c(=O)[nH]c2=O)n1N
→ 5.5, -0.5, 2.1, ., -0.4, -0.9%, -10.1, -1.3, 2.2, 1.2
Cc1ccc(/C=N/NC(=O)c2cc(-c3cccnc3)nc3ccccc23)cc1
→ 25.5, 16.1, -0.3, 19.3, 2.5, 14.6%, 15.5, -0.5, 12.7, 1.2
CCc1ccccc1Nc1ccc(C(=O)O)cc1N
→ ., ., ., -2.9, 0.6, ?, -4.1, ., -1.4, -0.7
COc1cc(NC(=O)c2cc(-c3cccnc3)nc3ccc(C)cc23)c(OC)cc1Cl
→ ., ., ., 4.1, -2.2, -4.6%, 22.4, ., -14.6, 0.4
CCOCCCN(C(=O)c1snc(C(N)=O)c1N)C(C(=O)NC1CCCC1)c1ccc(O)cc1 (stereo unspecified)
→ 6.7, 7.7, 1.8, -3.3, -5.0, ., -9.8, 2.0, -4.4, 0.3
O=C(CN(Cc1ccco1)C(=O)Cn1nnc(-c2cccs2)n1)NCC1CCCO1 (stereo unspecified)
→ 9.1, 17.5, 0.1, -1.3, 4.8, 8.0%, -10.2, -1.6, -16.5, 0.7
O=C(NCC1CCCO1)c1ccc2ccccc2n1 (stereo unspecified)
→ ., ., ., -1.4, 2.1, 1.5%, -10.5, ., -12.5, -0.2
O=C(O)CNC(=O)c1ccc2c(c1)OCCO2
→ 6.5, 11.6, -2.9, -11.4, -2.3, -2.1%, -3.4, ., 6.1, 2.0
COc1ccc(S(=O)(=O)NCc2ccncc2)cc1NC(=O)c1ccc(Cl)cc1
→ -4.6, -10.5, 2.0, ., 1.8, -7.5%, 17.4, -0.5, 1.9, -0.1
O=C(CNS(=O)(=O)c1ccc(Cl)cc1)NNC(=O)c1cccnc1
→ 6.0, 13.9, -0.4, -7.3, 6.7, 14.9%, -5.3, 1.3, -1.7, 0.1
CCOc1ccc(NC(=O)C2CCCN(c3nc(C)cc(C)n3)C2)cc1 (stereo unspecified)
→ 14.7, 13.4, -0.7, 0.1, 1.1, ., 2.3, -3.0, 1.7, -0.3
Cc1ccccc1-n1c(=O)cc(N2CCc3ccccc32)[nH]c1=O
→ 5.5, 7.5, 3.8, 1.0, 11.2, 9.4%, -5.1, -4.6, -4.9, -0.7
Cc1ccccc1OCC(=O)NNC(=O)c1ccc(-c2ccccc2)cc1
→ -3.6, 2.2, 4.5, -1.9, 0.7, -0.7%, -4.0, -5.2, -13.3, 0.2
CC(C)(C)c1ccc(/C=N/NC(=O)C[n+]2ccccc2)cc1
→ -1.2, 6.8, -1.2, 1.3, 0.5, ., -4.1, 2.7, -6.0, -0.7
